# Screening data deposited in PubChem by Emory University Molecular Libraries Screening Center.
# Measles inh: inhibitors of measles virus growth in infected cells; infected Vero cells, GFP fluorescence, 64 h; active compounds read low; z-score (no concentration beside the values); AID 745; 33,000 compounds, 0.1% hits;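 active means z-score under -3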;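 further: score is relative to mean and SD of the compound wells of a plate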
# An asterisk follows results filed as active. An excerpt; count on the stated rates, not on these rows.
SMILES,Measles inh
O=C1c2ccccc2C(=O)N1CC1c2ccccc2CCN1C(=O)c1cccs1 (configuration not stated),1.11
O=C(c1ccccc1)N1CCN(C(=O)c2ccc(F)cc2)CC1,-0.94
CC(=O)C1=C(O)C(=O)N(CO)C1c1ccccc1 (configuration not stated),0.7
CCn1nnnc1-c1ccc(OC)c(S(=O)(=O)Nc2ccccc2OC)c1,-0.87
COc1cccc(CN2CCN(S(=O)(=O)c3ccc4ccccc4c3)CC2)c1OC,-0.89
CC1(C)C(C=C(Cl)Cl)C1C(=O)Nc1sc2c(c1C#N)CCC2 (configuration not stated),0.81
CCc1ccc(S(=O)(=O)Nc2cc(Br)c3oc(C)c(C(C)=O)c3c2)cc1,-0.14
CC1(C)Cc2c(C#N)c(N3CCCC3)nc(-c3ccccc3)c2CO1,0.78
COc1ccc(N2CCN(C(=O)c3ccc(S(=O)(=O)Cc4ccccc4F)c([N+](=O)[O-])c3)CC2)cc1,-0.12
Cc1cc(OCc2nc(-c3ccc([N+](=O)[O-])cc3)no2)ccc1Cl,0.59
CC1=C(C(=O)OC2CCCCC2)C(c2ccccc2F)C2=C(CC(c3ccccc3)CC2=O)N1 (configuration not stated),-0.53
CCc1ccc(-n2c(=O)c3c(C)c(C(=O)N(C)C)sc3n(Cc3ccccc3C#N)c2=O)cc1,-1.14
Cc1ccc(CCNC(=O)c2c[nH]n3c(=O)c(Cc4ccccc4F)c(C)nc23)cc1,-0.83
COc1ccc(C)cc1NS(=O)(=O)c1ccc2c3c(cccc13)C(=O)N2,-1.56
Cc1ccc(S(=O)(=O)C2(C(=O)Nc3cccc(C)n3)CC2)cc1,-0.32
Cc1onc(-c2ccccc2Cl)c1C(=O)NCc1ccccn1,-0.26
N=C1SCC(=O)N1c1ncc(Cc2cccc(Cl)c2)s1,-0.15
O=C(Nc1ccc(-c2nc3ccccc3o2)cc1)c1cccc(Oc2ccccc2)c1,0.31
CC(C)CSc1nc2ccccc2n1CC(=O)O,-0.11
Cc1ccc(Nc2nc(N)nc(CC(=O)CSc3ccc(Cl)cc3)n2)cc1C,0.28
O=C1CSC(c2cccc(Oc3ccccc3)c2)N1c1ccccc1F (configuration not stated),-1.14
Cc1ccc(S(=O)(=O)Nc2ccc3c(c2)C(=O)NC3=O)cc1,0.97
COC(=O)c1c(-c2ccccc2)csc1NC(=O)CCCC(=O)O,1.02
CCOc1cccc(C2Nc3ccccc3NC3=C2C(=O)CC(C)(C)C3)c1O (configuration not stated),-0.2
Cc1cc(NC(=O)CCN2CCCCC2)no1,-1.18

# Laid out differently: entries from further up
Molecule	Measles inh
CC1(C)Cc2c(C#N)c(N3CCCC3)nc(-c3ccccc3)c2CO1	0.78
COc1ccc(N2CCN(C(=O)c3ccc(S(=O)(=O)Cc4ccccc4F)c([N+](=O)[O-])c3)CC2)cc1	-0.12
Cc1cc(OCc2nc(-c3ccc([N+](=O)[O-])cc3)no2)ccc1Cl	0.59

# 2 records drawn at random from the list so far:
SMILES,Measles inh
Cc1cc(OCc2nc(-c3ccc([N+](=O)[O-])cc3)no2)ccc1Cl,0.59
Cc1ccc(S(=O)(=O)Nc2ccc3c(c2)C(=O)NC3=O)cc1,0.97

# (more compounds)
SMILES,Measles inh
CC(=O)OCCOCn1cnn2c(=O)c([N+](=O)[O-])c(C)nc12,0.76
CC(C)CCSc1nc2c(c(=O)[nH]c(=O)n2C)n1CCC(C)C,0.47
Cc1ccc(C2CC(C(F)(F)F)n3ncc(C(=O)N(C)C4CCCCC4)c3N2)cc1 (configuration not stated),0.14
O=C1c2ccccc2C(=O)c2c1ccc(C(=O)N1CCN(C34CC5CC(CC(C5)C3)C4)CC1)c2[N+](=O)[O-],-0.56
Cc1cccc(N2C(=O)C3C(c4cc(Br)ccc4O)NC(CC(C)C)(C(=O)O)C3C2=O)c1 (configuration not stated),-0.03
COc1ccccc1C1C(C(=O)OC(C)C)=C(C)NC2=C1C(=O)CC(c1cccs1)C2 (configuration not stated),-0.24
CCOc1ccc(-n2c(SCc3ccccc3Cl)nc3c(c2=O)SCC3)cc1,-0.76
COc1nn(-c2nc(-c3cccs3)cc(C(F)(F)F)n2)c(C)c1[N+](=O)[O-],1.64
Cn1c(=O)n(Cc2cc3c(cc2Cl)OCO3)c(=O)c2c1ncn2Cc1ccccc1,-0.28
CCOC(=O)c1sc2nc(SCC(=O)c3ccccc3)n(Cc3ccc4c(c3)OCO4)c(=O)c2c1C,0.41
CCN(CC)c1ccc(C2C3=C(CC(C)(C)CC3=O)Nc3ccccc3N2C(=O)Cc2ccccc2)cc1 (configuration not stated),-0.83
CC(C)(C)NCc1nc(-c2ccc(Cl)cc2)no1,-1.08
O=C(C[n+]1cccc2ccccc21)c1ccc(-c2ccccc2)cc1,0.08
CCN1C(=O)N(CC)c2cccc3cccc1c23,-0.33
CCOC(=O)CSc1nc2sc(C)c(C)c2c(=O)[nH]1,0.84
O=C1C=C(C=Cc2cccs2)CC(c2cccs2)C1n1cnc([N+](=O)[O-])n1 (configuration not stated),-0.64
O=C(NCCC1=CCCCC1)c1ccc(N2CCc3ccccc32)c([N+](=O)[O-])c1,-0.32
CCOc1ccc(-c2cc3cc(OC)c(OC)cc3c(C)n2)cc1,-0.67
CCOc1ccc(-n2c(=S)sc3c(=O)[nH]c(SCc4cc(=O)n5cc(Cl)ccc5n4)nc32)cc1,-0.72
COc1ccc([N+](=O)[O-])cc1NC(=O)C(=O)CC(=O)c1ccccc1OC,1.47
CCN1CCN(C(=O)C2c3ccccc3C(=O)N(C)C2c2c[nH]c3ccccc23)CC1 (configuration not stated),-0.37
O=C(CCS(=O)(=O)c1cccs1)NCCCN1CCCCC1,-0.81
O=S(=O)(c1ccc(Cl)cc1)N(Cc1ccco1)CC(O)Cn1c2ccccc2c2ccccc21 (configuration not stated),-1.34
COc1ccc(C(=O)N2CCC(N3CCN(C)CC3)CC2)cc1,-0.38
CC(=O)Nc1cc(C(=O)NC2CCCCC2)ccc1S(=O)(=O)c1ccc(C)cc1,1.85

# Seven compounds out of the list above, sorted by their value in Measles inh, smallest number first.
Compound	Measles inh
CCN(CC)c1ccc(C2C3=C(CC(C)(C)CC3=O)Nc3ccccc3N2C(=O)Cc2ccccc2)cc1 (configuration not stated)	-0.83
O=C(CCS(=O)(=O)c1cccs1)NCCCN1CCCCC1	-0.81
CCN1C(=O)N(CC)c2cccc3cccc1c23	-0.33
Cc1cccc(N2C(=O)C3C(c4cc(Br)ccc4O)NC(CC(C)C)(C(=O)O)C3C2=O)c1 (configuration not stated)	-0.03
O=C(C[n+]1cccc2ccccc21)c1ccc(-c2ccccc2)cc1	0.08
Cc1ccc(C2CC(C(F)(F)F)n3ncc(C(=O)N(C)C4CCCCC4)c3N2)cc1 (configuration not stated)	0.14
CC(=O)Nc1cc(C(=O)NC2CCCCC2)ccc1S(=O)(=O)c1ccc(C)cc1	1.85

# Next section
SMILES,Measles inh
CCOC(=O)C1C(=O)C=C(c2ccc(OC)c(OC)c2)CC1c1ccccc1C (configuration not stated),-2.37
COCCOC(=O)C1=C(C)NC2=C(C(=O)CC(c3ccc(Cl)cc3)C2)C1c1ccc(N(C)C)cc1 (configuration not stated),1.3
CC(C)c1ccc(S(=O)(=O)N2CCN(C(=O)c3ccco3)CC2)cc1,-0.34
CCCOc1ccc(-c2cc(OCC)c3c(C)oc(C)c3c(=O)c2)cc1,-0.58
Cn1c(SCC(=O)Nc2cccc3ccccc23)nc2c([nH]c3ccccc32)c1=O,-1.27
CCOC(=O)c1sc2ncc([N+](=O)[O-])cc2c1N,-0.52
Clc1ccc(-c2csc(NCc3ccccc3)n2)cc1,-0.59
COc1ccc(OC)c(C2C3=C(CC(C)(C)CC3=O)OC3=C2C(=O)CC(C)(C)C3)c1,-0.43
CCCNC(=O)CCn1nc(-c2ccc(C)cc2)c2ccccc2c1=O,2.13
CC(C)C12CN3CC(C(C)C)(CN(C1)C3c1ccc(F)cc1)C2=O (configuration not stated),-0.12
COc1ccc(N=Cc2c(C)c(Cl)c(C)c([N+](=O)[O-])c2O)cc1OC,-0.4
CCN(CC)S(=O)(=O)c1ccc(C(=O)NCCc2cc3cc(C)c(C)cc3[nH]c2=O)cc1,0.17
CCOC(=O)c1c(NC(=O)c2ccccc2I)sc(C)c1C,0.5
COc1ccc(C(=O)Nc2ccc(N3C(=O)c4ccc(Cl)cc4C3=O)c(C)c2)cc1OC,0.83
CCOc1ccc(C=Nc2ccc(Br)cc2)cc1,-0.76
CCOc1ccc(NC(=O)CSc2nc(Nc3ccc(F)cc3)c3ccccc3n2)cc1,-0.72
CCC(=O)N1CCc2cc(S(=O)(=O)NCCCN3CCCC(C)C3)ccc21 (configuration not stated),1.68
COc1cccc(C(=O)CC(=O)C(=O)Nc2cc(OC)ccc2OC)c1,1.29
O=C(Nc1ccc(NC(=O)c2cccs2)cc1)c1ccc([N+](=O)[O-])cc1,1.51
O=[N+]([O-])c1cccc(C=Nc2cc(Cl)ccc2O)c1O,-1.99
CCCN(CCC)c1ncnc2c1sc1nc(N3CCOCC3)c3c(c12)CC(C)(C)OC3,-0.2
CC(O)CNC(=O)C12CC3CC(CC(C3)C1)C2 (configuration not stated),0.39
Cc1c(NC(=O)C2CCCCC2C(=O)O)c(=O)n(-c2ccccc2)n1C (configuration not stated),-2.29
Cc1ccc(OCC(=O)Nc2ccc(-c3nc4cc(C)cc(C)c4o3)cc2)c(C)c1,-0.17
CC(C)C1Cc2c(sc3nc(SCC(=O)O)n(Cc4ccccc4)c(=O)c23)CO1 (configuration not stated),-0.27

# Next structures follow:
SMILES,Measles inh
O=C1CC(Nc2ccc3ccccc3c2)C(=O)N1c1ccccc1 (configuration not stated),0.51
Cc1ccc(C)c(N2CCN(S(=O)(=O)c3ccc(F)c(C(=O)Nc4ccccc4Br)c3)CC2)c1,0.54
O=C(CSc1ncn[nH]1)Nc1ncc(Br)cc1Br,-0.08
O=C(Oc1ccc(-c2nc3ccc([N+](=O)[O-])cc3[nH]2)cc1)C1CCCCC1,-1.85
CCOC(=O)C1CCN(S(=O)(=O)c2ccc3c(c2)CCN3C(=O)C2CC2)CC1,-0.82
Cc1ccc(C(=O)O)c(NC(=O)c2ccccc2)c1,-1.65
CCOc1ccc(-n2ccnc2SCC(=O)Nc2ccccc2)cc1,-1.82
Cc1ccc(Sc2c(C)nn(C(=O)C3CCCN3S(=O)(=O)c3ccc(F)cc3)c2C)cc1 (configuration not stated),-0.14
Cc1cc(C)c2nc(C)cc(Nc3cccc(O)c3)c2c1,1.26
COc1ccc(-n2c(-c3ccc(OC)c(OC)c3)n[nH]c2=S)cc1,-1.09
COc1cc(NS(=O)(=O)c2cc(Br)cc3c2N(C(C)=O)C(C)C3)cc(OC)c1 (configuration not stated),0.07
CC(=O)Nc1ccc(N2CCCCC2)cc1,0.04
COc1ccc(N(CC(=O)NCc2ccco2)S(=O)(=O)c2ccc(C)cc2)cc1,-0.6
C=CCn1c(SCC(=O)NCc2ccco2)nc2sc3c(c2c1=O)CCC3,0.06
c1c2c(cc3c1OCO3)OCN(CC13CC4CC(CC(C4)C1)C3)C2,-0.62
Cc1ccccc1-n1nc2c(c1NC(=O)C1CCCC1)CS(=O)C2 (configuration not stated),-0.73
COC(=O)CCc1[nH]c2ccccc2c1Sc1ccccc1,-1.03
O=C(Cn1ccccc1=O)c1ccccc1,-0.46
Cc1ccccc1-c1n[nH]c(=S)o1,0.3
O=S(=O)(NC1CCCCCC1)c1ccc2nc(-c3ccccc3)[nH]c2c1,-0.71
CC(=O)Nc1nc(C)c(-c2csc(Nc3ccc(O)cc3)n2)s1,-1.04
COc1ccccc1NC(=O)c1ccc(N2CC3CC(C2)c2cccc(=O)n2C3)c(NC(=O)c2ccncc2)c1 (configuration not stated),1.53
CCOC(=O)c1c(NC(=O)COc2ccc([N+](=O)[O-])cc2)sc2c1CCC(CC)C2 (configuration not stated),0.6
CCOC(=O)c1c(C)oc2ccc(N(C(=O)c3ccccc3Cl)S(=O)(=O)c3cccc([N+](=O)[O-])c3)cc12,-0.28
COc1ccccc1NC(=O)C1=C(C)Nc2nc3ccccc3n2C1c1ccccc1F (configuration not stated),0.58

# Later entries.
SMILES,Measles inh
COc1ccc(CN2CC(=O)N(c3ccc(C)c(C)c3)C2=S)cc1OC,0.66
CC(C)CC(C(=O)O)N1C(=O)C2C3CC(C(Br)C3Br)C2C1=O (configuration not stated),-0.61
CCCOC(=O)C1=C(C)NC2=C(C(=O)CC(C)(C)C2)C1c1cc(OC)c(OC)cc1[N+](=O)[O-] (configuration not stated),-0.56
O=C(Nc1ccc(Sc2ccc([N+](=O)[O-])cc2)cc1)c1ccccc1Cl,-2.15
CC1=C(C(=O)OC2CCCCCC2)C(c2coc3ccc(C)cc3c2=O)C2=C(CC(C)(C)CC2=O)N1 (configuration not stated),-0.2
Cc1nc([N+](=O)[O-])cn1CC(=O)c1ccccc1,-0.42
CC(C)C1Oc2ccccc2C2CC(c3ccccc3)=NN21 (configuration not stated),-1.81
Cc1ccc(C(=O)Nc2cccc3c2C(=O)c2ccccc2C3=O)o1,-0.71
O=C1OC2C=CC=CC2C=C1C(=O)N1CCSC1c1ccc2c3c(cccc13)CC2 (configuration not stated),-0.52
COc1cc(CN2CCN(Cc3ccc(F)cc3)CC2)cc(OC)c1O,-1.27
Cc1cccc(-n2nc3c(c2NC(=O)c2ccc(Cl)c([N+](=O)[O-])c2)CSC3)c1C,-0.94
CCCCCCCOC(=O)C1=C(C)Nc2nnnn2C1c1ccc(Cl)cc1 (configuration not stated),0.53
N#Cc1c(N=Cc2cc(Br)ccc2O)sc2c1CCCC2,0.26
CCOc1ccc(C2C(C(=O)c3ccccc3)N3c4ccccc4C=CC3C2(C#N)C#N)cc1 (configuration not stated),0.7
FC(F)Oc1ccccc1C1C=C(c2ccc(I)cc2)Nc2ncnn21 (configuration not stated),-0.38
COC(=O)c1c(C)oc2ccc(NS(=O)(=O)c3ccc(C(C)C)cc3)cc12,-0.29
CCN(CC)c1ccc(C=NCCc2ccccc2)c(O)c1,0.45
CCCN1Cc2cccc(C(=O)Nc3ccc(OC)cc3OC)c2C1=O,0.78
CCOc1cc2[nH]c(=O)n(CCc3ccc(OC)c(OC)c3)c(=O)c2cc1OCC,0.86
O=C(NCCCN1CCCC1=O)c1ccc2c(c1)NC(=O)C(N1CCOCC1)S2 (configuration not stated),-0.92
O=C(O)CCNC(=O)Cn1ccc2ccccc2c1=O,1.37
